High-throughput results (PubChem)
Bfl-1 A1 inh: inhibitors of the anti-apoptotic protein A1, read as caspase activation; 0.066% of 330,000 active; caspase activation, % (concentration not given with the values); AID 2462; MEF A1-2A-BIM cells, Caspase-Glo 3/7 luminescence, 3 h; percent of clofoctol response, vehicle zero;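 active means over half of replicate activation scores above 10%, or exactly half above 10 with the replicate mean above 10; inconclusive means replicate mean below 10 yet half the replicates above 10; inactive means over half of replicates below 10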;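 further: wells of about 30 µL received 50 nL stock; many hits fall short of the cut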
RanGTP-Imp inh: disruptors of Ran-importin-beta complex formation – biochemical, FRET, CFP-Ran, YFP-importin-beta, homogeneous, primary screen. AID 2216. cell-free CFP-Ran/YFP-importin-beta FRET ratio. inhibition, % (no concentration beside the values). 1.1% of 300,000 active;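 active means most replicates above 15%; inconclusive means exactly half above 15%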;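 further: 0% = DMSO wells and 100% = Ran loaded with GDP instead of GTP; wells of about 40 µL received 100 nL stock; the first replicate is given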
Beta apoptosis: blocks beta cell apoptosis; INS-1E cytokine-induced death, ATP luminescence, 48 h; percent of positive-control rescue, neutral wells zero; protection from apoptosis, % (no concentration beside the values); 0.8% of 300,000 active; AID 435005;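 active means all replicates at 75% or more, or half of them and the mean; inconclusive means half reach 75% but not the mean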;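 further: 0% = cytokine-treated negative control wells and 100% = positive control rescue; higher means more ATP so stronger rescue from cytokine killing; wells of about 40 µL received 100 nL stock; the first replicate is given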
LANA-H2A inh: blocks KSHV LANA binding to histone H2A/H2B; cell-free LANA-H2A/H2B peptide, fluorescence polarization; 0.6% of 320,000 active; AID 2629; inhibition, % (test concentration not listed); Q9QR71; in the data active means inhibition mostly above about 10%, no sharp cut-off; inactive means mostly below about 6.7%;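 further: stock transfer was 7.5 nL into about 10 µL; 0% = median of vehicle wells and 100% = median of positive control wells; one replicate is shown; the record names a cut of 25% in any replicate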
Target sequence (Q9QR71 whole entry, looked up): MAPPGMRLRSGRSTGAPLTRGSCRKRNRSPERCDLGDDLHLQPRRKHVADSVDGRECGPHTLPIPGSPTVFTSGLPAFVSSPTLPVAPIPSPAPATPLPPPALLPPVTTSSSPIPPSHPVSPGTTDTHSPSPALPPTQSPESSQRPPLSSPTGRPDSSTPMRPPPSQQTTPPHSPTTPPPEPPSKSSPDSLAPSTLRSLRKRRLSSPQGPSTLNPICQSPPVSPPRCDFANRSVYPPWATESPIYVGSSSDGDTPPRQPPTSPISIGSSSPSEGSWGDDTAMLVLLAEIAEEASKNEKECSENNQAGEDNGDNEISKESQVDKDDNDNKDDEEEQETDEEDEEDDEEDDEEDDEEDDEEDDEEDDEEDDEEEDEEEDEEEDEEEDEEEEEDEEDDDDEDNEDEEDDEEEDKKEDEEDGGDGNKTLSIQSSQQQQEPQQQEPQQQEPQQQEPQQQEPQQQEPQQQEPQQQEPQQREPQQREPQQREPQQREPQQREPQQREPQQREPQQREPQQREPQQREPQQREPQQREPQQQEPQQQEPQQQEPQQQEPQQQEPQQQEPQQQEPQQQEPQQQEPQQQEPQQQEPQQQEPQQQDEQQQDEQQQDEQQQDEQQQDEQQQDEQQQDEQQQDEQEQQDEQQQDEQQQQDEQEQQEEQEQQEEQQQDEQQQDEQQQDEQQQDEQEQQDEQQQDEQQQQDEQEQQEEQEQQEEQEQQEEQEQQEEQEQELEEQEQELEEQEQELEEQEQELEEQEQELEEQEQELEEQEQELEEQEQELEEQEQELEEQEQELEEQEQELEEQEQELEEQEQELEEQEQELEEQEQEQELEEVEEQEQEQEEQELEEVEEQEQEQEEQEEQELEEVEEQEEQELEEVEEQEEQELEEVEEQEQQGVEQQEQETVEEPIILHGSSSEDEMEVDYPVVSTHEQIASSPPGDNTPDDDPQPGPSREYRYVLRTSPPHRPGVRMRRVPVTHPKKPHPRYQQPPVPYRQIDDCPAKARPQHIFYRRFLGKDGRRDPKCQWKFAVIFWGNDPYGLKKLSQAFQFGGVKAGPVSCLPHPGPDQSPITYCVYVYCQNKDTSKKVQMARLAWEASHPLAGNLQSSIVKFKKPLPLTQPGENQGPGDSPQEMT
Calb FLC: affects C. albicans growth with fluconazole; C. albicans CaCi-2 (fluconazole-resistant clinical isolate) + fluconazole, Alamar Blue growth, 48 h; growth inhibition, % (concentration not given with the values); 0.57% of 300,000 active;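 active means most replicates above 75%; inconclusive means exactly half above 75%; inactive means most below 75%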;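 further: all wells also contain fluconazole at 8 µg/ml as a sub-toxic cotreatment; 0% = median of DMSO wells and 100% = median of geldanamycin control wells; wells of about 8 µL received 7.5 nL stock; the first replicate is given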
T cruzi inh: T. cruzi replication inhibition | T. cruzi beta-gal in NIH3T3, luminescence, 90 h | inhibition, % (test concentration not listed) | 1.4% of 300,000 active | AID 1885;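 active means mean inhibition across valid replicates above about 55%, limit read from the data; inconclusive means mean below that limit but half or more replicates reach it; inactive means mean below it, under half of replicates reach it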;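 further: signal also drops with host cell toxicity which is not excluded here; 0% = plate median of DMSO wells and 100% = zero luminescence signal; higher percent means less beta-gal luminescence so fewer parasites; stock transfer was 50 nL into about 50 µL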
Vif A3G: HIV-1 Vif–A3G interaction blockers – biochemical, TR-FRET, GST-Vif 1-94, biotin-A3G peptide, dose response retest, primary screen (AID 1117319); TR-FRET GST-Vif / biotin-A3G peptide binding; higher % means a stronger effect; test concentration not given here; strong numbers were not always called active; inhibition, %, or IC50 in µM where a hit was titrated; 0.57% of 260,000 active;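 active means above the screen mean plus three standard deviations and confirmed in dose response; inconclusive means results disagree or hit not tested in dose response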;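 further: Vif residues 1-94 fused to GST binding biotinylated APOBEC3G peptide 110-148; 0% = full assay without inhibitor and 100% = GST in place of GST-Vif; retest series ran down from 100 µM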
AF4-AF9 inh: MLL-AF4/AF9 protein interaction inhibition; P42568; AlphaScreen, biotin-AF4 peptide binding to FLAG-AF9; inhibition, % at 10 µM; 0.47% of 350,000 active;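 active means every replicate reaching a set inhibition limit, whatever the replicate mean, cut at about 25% in these data; inconclusive means mean inhibition reaches that limit but some replicates miss it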;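 further: 0% = plate neutral control median and 100% = total signal loss; the record names both 10 and 1 µM as test concentration; the first replicate is given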
The depositor's hits bear a star; ? = inconclusive; . = no result given; & = joins results of further samples.

SMILES	Bfl-1 A1 inh	RanGTP-Imp inh	Beta apoptosis	LANA-H2A inh	Calb FLC	T cruzi inh	Vif A3G	AF4-AF9 inh
CN(C)S(=O)(=O)c1ccc(N2CCCC2)c(C(=O)NNC(=O)c2ccccc2)c1	-1.0	.	-1	1.5	.	.	-3%	0.6
O=C(Nc1ccc(Oc2ccccc2)nc1)C1CCCCN1Cc1ccco1 (stereo not drawn)	0.3	1.5	8	3.2	-5	-4	10%	0.4
O=Cc1cc2ccccc2nc1SCc1ccc(Cl)cc1	1.8	-0.4	25	3.7	-5	-5	1%	.
CCOc1ccc(NC(=O)NCCN2C(C)CCCC2C)cc1 (stereo not drawn)	0.8	3.8	4	0.0	8	-12	3%	.
CCC(=O)N(CCC1(C(C)C)CCOC(C)(C)C1)C(C)c1cccs1 (stereo not drawn)	0.6	-0.7	-8	-2.0	?	8	.	1.1
C=CCOCC(O)Cn1c(N2CCCC2)nc2c1c(=O)n(C)c(=O)n2C (stereo not drawn)	0.8	0.2	.	-1.5	4	-3	.	2.1
Cc1ccccc1NC1=NC2(CCCC2)N=C(N)N1	-0.1	-2.2	-6	0.2	29	-4	-7%	-3.0
CC(NC(=O)COc1ccccc1)C(c1cccs1)N1CCCC1 (stereo not drawn)	0.7	3.5	-11	-2.4	4	4	2%	0.5
COc1ccc(-c2[nH]ncc2CN(C)Cc2ccccn2)c(OC)c1	1.4	2.5	-8	0.8	4	-1	.	1.2
O=C(Nc1nccs1)c1cn(-c2ccccc2)nc1-c1ccccc1	0.4	0.7	10	-2.2	-6	3	-5%	.
CCCn1nnnc1SCC(=O)NC1CCCC1	-0.2	2.7	0	0.3	13	-12	.	-1.7
COC(=O)c1nc(NC(=O)c2ccc(C(C)(C)C)cc2)n[nH]1	.	2.2	.	.	11	5	-8%	-2.8
CCOC(=O)c1ccc(N2C(=O)CC(N3CCC(C(=O)OCC)CC3)C2=O)cc1 (stereo not drawn)	-0.1	6.2	-5	0.9	3	1	-7%	.
CCOc1ccc(CCNC(=O)c2cccc(NC3=NC4CS(=O)(=O)CC4S3)c2)cc1 (stereo not drawn)	-0.3	1.4	-3	-1.2	1	-9	.	15
COc1ccc(CN(C)C(=O)Cn2ccc(NC(=O)OCc3ccccc3)nc2=O)cc1OC	-1.2	.	2	2.0	.	.	.	1.3
O=C(OC1CCOC1=O)c1cccc(S(=O)(=O)N2CCc3ccccc3C2)c1 (stereo not drawn)	-0.1	-4.9	-4	3.8	-17	-14	?	0.6
Nc1nonc1-n1nnc(C(=O)N/N=C/c2ccccc2)c1CN1CCc2ccccc21	0.0	-1.6	-1	-1.9	-1	9	.	1.2
N#Cc1ccccc1NC(=O)c1ccccc1OCC(=O)NCc1ccco1	-1.3	6.3	-3	-0.8	9	-4	-8%	7.0
COc1cc(-c2nc(-c3cccc(C(F)(F)F)c3)no2)cc(OC)c1OC	0.1	-2.7	3	0.4	6	18	6%	.
COc1cc(O)c(C(CCN2CCCC(C)C2)c2ccc(N(C)C)cc2)c(OC)c1 (stereo not drawn)	-0.1	1.5	9	0.2	-24	3	?	23
Cc1ccc(-n2ncc(C#N)c2/N=C/N2CCCCCC2)cc1	0.6	4.5	-6	-0.8	2	-2	75%	.
Cc1noc(C)c1COc1ccc(C(=O)OC(C)C(=O)Nc2ccc(N3CCOCC3)cc2)cc1 (stereo not drawn)	5.8*	-0.5	1	5.5	-4	-3	6%	.
COc1ccc(CSc2nc3nc(C)cc(C)n3n2)cc1F	0.3	-4.9	-5	-0.2	.	4	-5%	-2.6
COc1ccc(-c2cc(C)no2)cc1S(=O)(=O)N1CCOc2ccc(Cl)cc21	-1.8	-1.6	8	3.3	-1	14	.	0.2
Cn1c(N)c(C(=O)COC(=O)CSc2ccccc2)c(=O)n(C)c1=O	0.3	-1.5	1	-5.1	-18	3	.	7.2
Cn1cnnc1SCC(=O)NCCc1ccccc1	1.2	0.0	-7	0.9	-13	-9	-3%	.
CC(C)CC(=O)Nc1ccc(C(=O)Cn2nc(C(=O)O)c3ccccc3c2=O)cc1	-0.2	0.2	1	4.1	6	-6	12%	.
Cc1cc(C(=O)N/N=C\c2cc(C(C)(C)C)ccc2O)n[nH]1	-0.2	-2.9	-4	-4.5	3	7	.	.
CCNC(=O)c1c(C)nc2ccccn12	0.0	0.4	-2	-0.9	-2	-6	10%	.
CC(=O)Oc1c(S(=O)(=O)c2ccccc2)c(C)nn1C(C)(C)C	0.2	-3.1	.	-0.9	15	-18	-3%	.
COC1C=CC(CNC(=O)c2cc3c(=O)n4cccc(C)c4nc3n2C)(OC)O1 (stereo not drawn)	0.5	-1.9	8	-2.5	31	2	-4%	-2.0
CCc1ccc(C(=O)OCC(=O)N(CC)c2c(N)n(Cc3ccccc3)c(=O)[nH]c2=O)cc1	0.1	.	-2	.	.	.	5%	-1.7
Cc1cccc(C)c1NC(=O)NC1(C(=O)N2CCN3CCCC3C2)CCCCC1 (stereo not drawn)	0.9	0.3	-4	-0.7	1	10	.	-2.7
CC(C)(C)n1ncc2c(=O)n(CC(=O)Nc3ccc4c(c3)OCO4)cnc21	1.5	2.1	-4	-1.9	1	6	14%	.
COc1cc(S(=O)(=O)NCc2ccc3c(c2)OCO3)ccc1Cl	-0.9	1.6	-8	3.3	-5	-7	0%	.
CCN(CC)CCCNc1cc2n(c(=O)n1)CCc1cc(OC)c(OC)cc1-2	-0.1	5.8	0	-7.2	-5	6	31%	.
O=C(Nc1c(C(=O)O)[nH]c2ccccc12)c1cccc(C(F)(F)F)c1	0.4	0.4	-5	2.7	-3	-12	12%	-16
Cc1ccc2oc(NC(=O)N3CCOCC3)cc(=O)c2c1	0.2	-2.5	7	-3.7	-4	25	-6%	.
CCOC(=O)C1CCN(Cc2cnc(Oc3ccc(Cl)cc3C)s2)CC1	-0.5	3.0	6	3.4	-21	17	7%	.
CCCSc1nc(N)nc(-c2cccs2)c1C#N	-0.5	0.2	6	-3.7	12	23	3%	.
CCCN1C(=O)/C(=C/c2ccc(OCC(=O)OCC)cc2)NC1=S	.	0.7	.	.	50	1	-2%	3.9
O=[N+]([O-])c1ccc(Oc2ncccn2)cc1	0.8	4.6	-4	0.0	-5	-11	.	.
CNC(=O)C(NC(=O)c1ccccc1)=C(C)C	-0.2	-0.5	0	-3.9	1	-6	6%	0.8
CC(=O)c1cnc2nc(SCc3ccc(C)cc3)nn2c1C	-1.2	0.3	.	-0.3	-1	4	.	2.5
c1ccc2c(c1)ccc1nnc(SCc3ccc4c(c3)OCO4)n12	-0.1	-1.7	1	2.6	0	2	67%	-2.1
N#Cc1cc(C(=O)c2cc(Br)ccc2O)cn(Cc2ccccc2)c1=O	-0.7	-1.5	16	-1.7	-1	-7	14%	-0.8
COCCN(CCOC)c1nc(N)c2c(N)nc3c(c2c1C#N)CC(=O)N3Cc1ccc(Cl)cc1	0.8	-1.4	-4	0.1	-5	-2	.	.
COc1ccc(NS(=O)(=O)c2ccc(C)c(C(=O)N(C)CC(=O)Nc3cccc(OC)c3)c2)cc1	-0.2	1.0	28	-1.9	-4	-10	2%	-14
Cc1cc(C)nc(N/N=C/c2ccc(Cl)cc2)n1	-0.2	3.5	0	-2.5	0	-27	-3%	-1.0
O=C(CN1C(=O)C2CC=CCC2C1=O)Nc1nnc(SCc2ccc(F)cc2)s1 (stereo not drawn)	0.3	1.6	-6	-1.2	-11	-2	15%	.

(cont.)
SMILES	Bfl-1 A1 inh	RanGTP-Imp inh	Beta apoptosis	LANA-H2A inh	Calb FLC	T cruzi inh	Vif A3G	AF4-AF9 inh
COc1ccc(Cl)c2sc(N(CCN(C)C)C(=O)c3ccc4c(c3)OCCO4)nc12	0.7	-1.5	.	-4.0	-13	18	1%	14
CN(CC(=O)NCCc1ccc(S(N)(=O)=O)cc1)CC(=O)Nc1ccc(F)c(F)c1F	-1.1	.	1	1.9	.	.	-3%	3.1
CCOC(=O)c1c(NC(=O)c2ccc(Br)o2)sc2c1CCCC2	-0.2	0.2	4	-2.2	0	-5	2%	.
CSc1nc(C(=O)N2CCCC(C(=O)c3ccc(Cl)cc3)C2)cs1 (stereo not drawn)	-0.2	-0.8	-5	1.0	-4	-7	8%	-4.4
COc1ccc(/C=C2/C(=O)N(Cc3ccccc3)N=C2C)cc1	1.7	-1.1	-1	-3.5	8	-8	9%	1.4
Cc1ccc(C2C3CN(C(C)C)CC=C3C(C#N)=C(N)C2(C#N)C#N)cc1 (stereo not drawn)	1.0	63*	-15	6.6	8	5	7%	.
C=CC(C)(C)c1[nH]cnc1/C=C1\NC(=O)C(C(C)C)NC1=O (stereo not drawn)	1.1	0.1	-3	-4.2	-4	10	.	5.2
COc1ccc2c(c1)OC(O)(C(F)F)CC2=O (stereo not drawn)	0.0	2.8	-7	-4.9	18	1	0%	.
O=c1[nH]c(C2CCN(S(=O)(=O)c3ccc(S(=O)(=O)NC4CC4)cc3)CC2)nc2c1nnn2Cc1ccc(F)cc1	0.8	2.7	-2	-3.8	20	8	.	-2.2
Cc1ccc(-n2nnc3c(=O)n(CC(=O)NCc4ccco4)cnc32)cc1	0.6	-0.2	-6	1.8	-3	-29	-3%	-3.7
COc1ccc(N2CC(C(=O)N(CC(C)C)c3c(N)n(Cc4ccccc4)c(=O)[nH]c3=O)CC2=O)c(OC)c1 (stereo not drawn)	-0.3	-2.2	-1	1.8	.	6	-2%	0.8
O=C(NC(Cc1c[nH]c2ccccc12)C(=O)N/N=C/c1cccc2ccccc12)c1cccs1 (stereo not drawn)	-1.9	1.2	9	-0.7	19	26	8%	3.0
O=C(CCS(=O)(=O)Cc1ccccc1)Nc1ccc2c(c1)OCCO2	-0.3	-1.8	4	1.5	38	-6	31%	-0.1
O=C(CC12CC3CC(C1)CC(CC(=O)NC1=NCCS1)(C3)C2)NC1=NCCS1	.	-0.1	.	.	-6	-4	-4%	.
C/C(=C\c1ccco1)CN1CCN(Cc2ccc(C)o2)C(CCO)C1 (stereo not drawn)	-0.4	-2.0	-5	2.4	-7	6	4%	3.9
Cc1cccc(NC(=S)NN2CCOCC2)c1C	0.3	-0.1	-2	1.0	0	-3	?	.
COC(=O)Nc1ccc2c(c1)N(C(=O)CCN1CCN3CCCC3C1)c1ccccc1S2 (stereo not drawn)	-0.2	-3.7	.	4.8	-20	53	4%&-6%	.
COCC(C)NC(=O)c1ccc(Cl)c(Cl)c1 (stereo not drawn)	-0.3	2.2	0	-3.0	8	-4	15%	.
Cc1ccc(S(=O)(=O)NCCNC(=O)CN2CCCC2)cc1	0.1	0.6	-4	4.5	6	2	29%	.
CN(C(=S)Nc1ccc(SC(F)F)cc1)C(c1ccccc1)c1ccccc1	0.0	-2.6	-7	-14	-2	-5	.	0.4
